Vaccinia mCherry = vaccinia inhibition (mCherry reporter). Vaccinia virus mCherry reporter infection, fluorescence; about a quarter of the inactives have no number. Potency, µM (top dose mostly 36.5 µM), without a hit: at the highest dose activity change, negative = inhibition, actives largely listed as inhibitors. hit rate 0.63% among 310,000. AID 720579; active = well fitted inhibition curve with a large enough effect; inconclusive = small, poorly fitted or top-dose-only effect; inactive = no such curve, though single readings can be large or run the other way; tested in A549 cells; also: nearly all actives have a fitted effect of over 35% in size; inactives centre near -10
VACV Venus inh = inhibitors of vaccinia virus (Venus reporter); Vaccinia virus Venus reporter expression, fluorescence; Potency, µM (highest dose often 36.5 µM), without a hit: at the top dose activity change, negative = inhibition, hits mostly inhibitors; hit rate 0.46% among 330,000; active means well fitted inhibition curve with a large enough effect; inconclusive means small, poorly fitted or top-dose-only effect; inactive means no such curve, though single readings can be large or run the other way; tested in A549 cells; also: nearly all actives have a fitted effect of over 30% in size; inactives centre near -10
* marks the source's active call; other numbers are inactive results; i = inactive; u = inconclusive; x = no result given; & = joins results of further samples; [ ] = remark or other dose. % is scaled to controls: 0 for no effect and ±100 for the full control effect; potency is read from the fitted curve at half-maximal effect.

Sample of the layout, three compounds:
Compound	Vaccinia mCherry	VACV Venus inh
Cc1cccc(NC(=O)Nc2ccccn2)c1C	-13%	-11%
Cc1noc(C)c1COC(=O)CCc1nc2ccccc2c(=O)[nH]1	-21%	-15%
Cc1c(C)n(C)c2ccc(C(=O)NCCCN3CCCCC3)cc12	-9%	-10%&-2%

All compounds of this part, previewed entries included:
Compound	Vaccinia mCherry	VACV Venus inh
Cc1cccc(NC(=O)Nc2ccccn2)c1C	-13%	-11%
Cc1noc(C)c1COC(=O)CCc1nc2ccccc2c(=O)[nH]1	-21%	-15%
Cc1c(C)n(C)c2ccc(C(=O)NCCCN3CCCCC3)cc12	-9%	-10%&-2%
CCOc1ccc(Cl)cc1CNCCNCC(C)O (configuration not stated)	-21%	-11%
O=C(Nc1ccc(OCC(F)(F)C(F)F)cc1)c1ccncc1	i	-15%
C[C@H](NC(=O)c1nc[nH]c1C(=O)NCCCCCN)C(=O)OCc1ccccc1	-13%	4%
O=C(Nc1cccc(Cl)c1)C1CCCN(c2ncnc3c2nc2n3CCCCC2)C1 (configuration not stated)	-17%	-15%
Cc1oc2cc3oc(=O)c(CCC(=O)NCCc4ccccc4F)c(C)c3cc2c1C	-21%	-13%
Cc1ccc(-n2nc(C)c(C(=O)O)n2)c(C)c1	-8%	1%
CC(C)c1ccc2[nH]c(O)c(N=NC(=O)c3cccc(S(=O)(=O)Nc4ccccc4Cl)c3)c2c1	0%	-6%
Cc1ccc(-c2cc(-c3cccc(F)c3)n[nH]2)c(O)c1	-4%	-20%
CCOc1ccc2nc(NCCNC(=O)C3CC3)c(C)cc2c1	-9%	3%
CCc1ccc(NC(=O)CN2C(=O)C(=O)c3ccccc32)cc1	4%	2%
CCCCNC(=O)/C(C#N)=C/c1ccc2c(c1)OCCO2	i	-16%
Cc1cc(C)cc(NC(=O)CCCc2nc(-c3ccco3)no2)c1	-1%	-1%
COc1ccccc1OCc1nc2ccccc2n1Cc1ccccc1	-3%	-15%
NCC(=O)c1ccc(Br)cc1	i	-11%
CCCn1c(-c2ccc(OC)cc2)nc2c(=O)n(C)c(=O)[nH]c21	i	-19%
Oc1cccc(NC(=S)Nc2ccc(SC(F)F)cc2)c1	-16%	-19%
Cc1cc(C)c2cc3c(N)c(C(=O)Nc4c(C)[nH]c(=O)[nH]c4=O)sc3nc2c1	3%	4%
CCOC(=O)C(CCCCP(=O)(c1ccccc1)c1ccccc1)(NC(C)=O)C(=O)OCC	-14%	-13%
Cc1cccc(N2CCN(C(=O)c3[nH]c(C(F)(F)F)nc3-c3ccccc3)CC2)c1C	u	u
Cc1onc(-c2ccccc2)c1C(=O)NCCc1ccc(Cl)cc1	-1%[1.46 µM]	-15%
COc1cccc(NS(=O)(=O)c2cc3c(cc2C)N(C(C)=O)CCO3)c1	8%	1%
Cn1c(=O)c2c(nc(-n3ccnc3)n2C)n(C)c1=O	x	-2%
CC1CCN(S(=O)(=O)c2cn(CC(=O)Nc3cccc(C(F)(F)F)c3)c(=O)c3ccccc23)CC1	-22%	-12%
NS(=O)(=O)c1ccc(-c2ccc(C=O)o2)cc1	5%	-2%
OC1C2COC(O2)[C@H](O)C1O (some centres not stated)	-13%	10%
O=C(NCc1cccc(Cl)c1)c1cnc(N2CCOCC2)c2ccccc12	-9%	-12%
CCc1ccccc1NC(=O)CCC(=O)c1cccs1	i	-12%
CC(OC(=O)Cn1cnc2ccccc2c1=O)C(=O)NCc1ccccc1 (configuration not stated)	i	-3%
O=S(=O)(Nc1ccon1)c1ccc(F)c(F)c1	-1%	-19%
CCC(C(=O)NCCc1ccc(OC)c(OC)c1OC)n1nc(C)c2sc3ccccc3c2c1=O (configuration not stated)	-19%	-14%
Cc1cccc(C)c1NC(=O)C(C)n1c(-c2ccc(=O)[nH]c2)nc2ccccc21 (configuration not stated)	i	0%
Cc1ccc(NC(=O)c2cc(N3C(=O)CCC3=O)ccc2N2CCOCC2)cc1	-14%	-9%
COc1ccc(OCC(=O)N/N=c2\oc3c(OC)cccc3cc2C(N)=O)cc1	-18%	-10%
O=C(CCCn1c(=O)[nH]c2cc(Cl)ccc2c1=O)NCC1CCCO1 (configuration not stated)	x	-7%
Cc1cccc(C(=O)N2CCN=C2SCc2ccc([N+](=O)[O-])cc2)c1	-17%	-13%
O=C(O)CC(NC(=O)Cc1ccc([N+](=O)[O-])cc1)c1ccc2c(c1)OCO2 (configuration not stated)	-15%	-18%
O=C(O)C1OCC2(CO1)COC(C(=O)O)OC2 (configuration not stated)	-14%	-6%
Cc1cc(C)c2c(=O)[nH]c(SCC(=O)Nc3ccccc3)nc2n1	3%	6%
CCOC(=O)c1ccc(NC(=O)Nc2ccc(F)cc2)cc1	-27%	-21%
CCC(=O)Nc1cccc(NC(=S)NC(=O)c2cccc(C)c2)c1	-8%	-21%
CC1CCCC(C)N1/N=C/c1ccccc1Br (configuration not stated)	-2%	-12%
CCNC(=O)C1(C)CCN(C(=O)c2cc(OC)c(OC)c(OC)c2)C1 (configuration not stated)	5%	-7%
CC(C)CCC1=NN(C(=O)c2ccco2)C(O)(C(F)(F)F)C1 (configuration not stated)	u	-15%
COc1ccc(-c2cc3nc(-c4ccccc4)cc(N4CCN(C(=O)c5ccccc5)CC4)n3n2)cc1	-1%	-14%
CC(=O)Nc1ccc(S(=O)(=O)N2CCC(C(=O)NCc3ccncc3)CC2)cc1	i	-16%
NC(=O)c1cnccc1C=Cc1ccccc1	i	-9%
CC1(C(=O)OCc2cc(=O)n3cc(Br)ccc3n2)CC1(Cl)Cl (configuration not stated)	-3%	-5%
CC(C)(C)C(=O)c1c(N)[nH]c(C(=O)c2ccccc2)c1-c1ccc(Cl)cc1Cl	-9%	-9%
Clc1ccc(Nc2nc(-c3ccccc3)c3ccccc3n2)c(Cl)c1	i	-25%
COCCNC(=O)NC(=O)CSc1nc(C)c(C)c(C)n1	-8%	-4%
O=C(O)c1nc(-c2ccccc2)n(-c2ccc(Cl)cc2)n1	x	-25%
CCO[C@H]1OC(C(=O)NC2CC2)=C[C@@H](c2ccc3c(c2)OCO3)[C@@H]1CCCO	i	-18%
CCn1c(CCCOc2ccc(Cl)cc2Cl)nnc1SCC(=O)Nc1cc(F)ccc1C	u	u
Clc1ccsc1-c1ccnc(-n2cccc2)n1	-16%	-17%
CC1=C(c2ccc(F)cc2)S(=O)(=O)N=C1N1CCC(C(=O)NCCc2cccc(C)c2)CC1	-15%	-8%
CCCCN(C(=O)CSc1nnnn1C)c1c(N)n(Cc2ccccc2)c(=O)[nH]c1=O	i	-10%
COCCn1c(Cc2ccccc2)nnc1SCC(=O)NC(C)C	i	-14%

Continued:
Compound	Vaccinia mCherry	VACV Venus inh
Cc1ccc(C)c(NC(=S)N2CCC(NC(=O)c3ccccc3)CC2)c1	-14%	-7%
O=C(CN1C(=O)COc2ccccc21)N1CCc2ccccc2C1	-11%	-15%
O=C(CCCC1=NS(=O)(=O)c2ccccc2N1)N1CCN(c2ccc([N+](=O)[O-])cc2)CC1	-15%	-3%
COc1ccc(-c2cc3nc(NCCCN(C)C)n(C)c(=O)c3s2)c(C)c1	-12%	-12%
Cc1cc(N2CCN(c3ccccc3F)CC2)nc2cc(O)ccc12	-7%	-18%
CC1=C(C(=O)N(C(C)C)C(C)C)CC(CC(=O)NCc2ccco2)C(=O)N1CCC1=CCCCC1 (configuration not stated)	i	-2%
Cc1ccccc1CC(=O)Nc1ccc2c(c1)c(=O)n(C)n2-c1cccs1	-21%	-21%
C[N+]1(C)CCC(OC(=O)C(c2ccccc2)c2ccccc2)CC1	-19%	-16%&-10%
COc1ccc(OCC(=O)N2CCc3c([nH]c4ccccc34)C2c2ccccn2)cc1 (configuration not stated)	-5%	-13%
Cc1cc(NC(=O)CSc2nc3c([nH]c4ccccc43)c(=O)n2-c2cccc(Cl)c2)no1	2%	-6%
CCc1nc2c(OCc3ccc4c(c3)OCO4)cccn2c1N(C=O)Cc1ccc(OC)cc1	i	-8%
CCOC(=O)C(=O)Cc1nc(OCc2ccccc2)cc(OCc2ccccc2)n1	i	0%
O=S1(=O)CC(N2CCN(c3ccccn3)CC2)CN1Cc1ccccc1 (configuration not stated)	3%	-12%
Cc1ccc(S(=O)(=O)c2cn(C)c3cc(N4CCOCC4)c(F)cc3c2=O)cc1	-19%	-4%
O=C(COc1coc(CN2CCc3ccccc32)cc1=O)Nc1cccc(F)c1	-9%	0%
COCCCn1c(=O)/c(=C/c2ccccc2OC(F)F)s/c1=C(\C#N)C(=O)NCCOC	i	-7%
C=CCC(NCc1ccccc1)c1ccc(Cl)cc1 (configuration not stated)	-16%	-16%
CCOc1ccc(N(CC(=O)Nc2ccc(OC)cc2)C2=NC3CS(=O)(=O)CC3S2)cc1 (configuration not stated)	-19%	-27%
CCN(CC(=O)Nc1c(F)cccc1F)C(=O)c1ccc2c(c1)S(=O)(=O)N=C1CCCCCN12	i	-13%
O=C(NCCN1CCOCC1)c1ccc(NC(=O)C2COc3ccccc3O2)cc1 (configuration not stated)	-11%	-4%

The final 6 entries of the section before are carried over, then new ones follow:
Results follow in this order: Vaccinia mCherry, VACV Venus inh
- O=C(COc1coc(CN2CCc3ccccc32)cc1=O)Nc1cccc(F)c1
→ -9%, 0%
- COCCCn1c(=O)/c(=C/c2ccccc2OC(F)F)s/c1=C(\C#N)C(=O)NCCOC
→ i, -7%
- C=CCC(NCc1ccccc1)c1ccc(Cl)cc1 (configuration not stated)
→ -16%, -16%
- CCOc1ccc(N(CC(=O)Nc2ccc(OC)cc2)C2=NC3CS(=O)(=O)CC3S2)cc1 (configuration not stated)
→ -19%, -27%
- CCN(CC(=O)Nc1c(F)cccc1F)C(=O)c1ccc2c(c1)S(=O)(=O)N=C1CCCCCN12
→ i, -13%
- O=C(NCCN1CCOCC1)c1ccc(NC(=O)C2COc3ccccc3O2)cc1 (configuration not stated)
→ -11%, -4%
- CC(C)(C)OC(=O)N1CCC(c2c(C(=O)N3CCCCC3)cnn2-c2ccc(F)cc2)CC1
→ 0%, -9%
- Cc1ccc(C(=O)N/C(=C\c2cccnc2)c2nc3ccccc3[nH]2)cc1
→ -6%, -12%
- CCCCn1c(N)c(N(CCOC)C(=O)CSc2nnc(-c3ccncc3)n2CCC)c(=O)[nH]c1=O
→ i, -1%
- CC1(C(=O)NS(=O)(=O)c2cccc(C#N)c2)CCN1C(=O)Cc1ccccc1 (configuration not stated)
→ 2%, -10%
- CN(c1ccc(C(=O)Nc2ccc3c(c2)n(C)c(=O)n3C)cc1)S(C)(=O)=O
→ i, -2%
- CCOC(=O)c1cnn2c(N)c(C#N)nnc12
→ -20%, -4%
- Cc1onc(-c2c(F)cccc2Cl)c1C(=O)NCCc1ccncc1
→ -1%, -13%
- CN1/C(=C\C=Nc2ccccc2)C(C)(C)c2ccccc21
→ -3%, 37%[activator]
- Cc1ccc(CSc2nnc(CC(=O)Nc3ccc(C)cc3)n2C)cc1
→ -15%, -12%
- Cc1cc(Cl)nc(-n2nc(C)cc2C)n1
→ i, -6%
- Fc1ccc(C2c3[nH]c4ccccc4c3CCN2Cc2ccoc2)cc1 (configuration not stated)
→ u, -8%
- COc1ccc(C(=O)N/N=C2\CCS(=O)(=O)c3ccc(F)cc32)cc1OC
→ i[7.34 µM], -8%[7.34 µM]
- COC(=O)CCCn1c(C)cc(C(=O)CCl)c1C
→ u, u
- Cc1ccccc1CN1CCN(c2ccc(S(=O)(=O)N3CCCC3)cn2)CC1
→ -22%, -11%
- COC(=O)c1cccc(NC(N)=S)c1
→ -7%, u

Compound profiles, as listed above:
CCOC(=O)c1cnn2c(N)c(C#N)nnc12 is entered as Vaccinia mCherry = -20%; VACV Venus inh = -4%
Cc1onc(-c2c(F)cccc2Cl)c1C(=O)NCCc1ccncc1 is entered as Vaccinia mCherry = -1%; VACV Venus inh = -13%

The results go on:
Results follow in this order: Vaccinia mCherry, VACV Venus inh
- CCCc1nnc(NC(=O)CCS(=O)(=O)Cc2ccccc2)s1
→ i, -2%
- O=C(CN1C(=O)c2ccc([N+](=O)[O-])cc2C1=O)Nc1nccs1
→ 1%, -16%
- O=C(Cc1cccc([N+](=O)[O-])c1)Nc1cccc(C(=O)N2CCOCC2)c1
→ i, 3%
- COc1ccc(S(=O)(=O)CCC(=O)N2CCN(c3ccc(F)cc3)CC2)cc1
→ -2%, -17%
- c1ccc(-c2cc(-c3cc(-c4ccccc4)on3)no2)cc1
→ 3%, -4%
- O=C(NCCN1CCOCC1)c1cc(-c2cccc(Cl)c2)on1
→ i, -12%
- O=C(NCCCn1ccnc1)c1cc(Cl)cc(Cl)c1
→ i, -6%
- NNC(=S)NCc1ccccc1
→ u, -6%
- COc1ccccc1CNC(=O)[C@H](NC(=O)C1CCN(C(=O)[C@@H](N)CCSC)CC1)C(C)C
→ -1%, 1%
- CC(Oc1ccccc1)C(=O)Nc1nnc(S(=O)(=O)Nc2ccccc2)s1 (configuration not stated)
→ 0%, -6%
- Cn1ncc2c(NCCc3ccccc3)nc(Cl)nc21
→ -6%, -19%
- CCOC(=O)c1cccc(Nc2ccc3cc(S(=O)(=O)N4CCCCC4)ccc3n2)c1
→ -10%, 3%
- Cc1ccc(-c2noc(-c3ccc(N4CCOCC4)c([N+](=O)[O-])c3)n2)cc1
→ -9%, -8%
- CNc1ccccc1C(=O)OCC(=O)Nc1ccc2c(c1)OCO2
→ -11%, 6%
- Cc1ccc(S(=O)(=O)N(C)C[C@@H]2OCc3cnnn3CCCC(=O)N([C@@H](C)CO)C[C@H]2C)cc1
→ -17%, -14%

Assay outcomes as filed in PubChem BioAssay.
